# RN4220 kill – kills Staphylococcus aureus RN4220; AID 1259311; S. aureus RN4220 growth, OD600, 16 h; hit rate 0.33% among 330,000; inhibition, % (concentration not given with the values);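 active = z-score of -3 or lower and OD600 up to 0.18 on both plates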;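 also: plate controls were untreated cells for no effect and reference antibiotic for full effect; stock transfer was 100 nL into about 80 µL; one replicate is shown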
# PrP 5UTR inh – inhibition of PrP 5' UTR reporter expression; inhibition, % (concentration not given with the values); AID 488862; cell-based PrP 5' UTR mRNA reporter, plate reader; hit rate 0.35% among 340,000;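 active = every replicate at 50% or more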;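 also: 0 = median of the neutral control wells; tested in H4 reporter cells; numbers are from one replicate; inactives centre near -14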
# BJeLR viability – kills HRASV12-expressing BJeLR cells. BJeLR (HRASV12) viability, CellTiter-Glo ATP luminescence, 48 h; reference of the scale not given here. inhibition, % (no concentration beside the values). hit rate 0.17% among 300,000;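 active = replicate mean above 50%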;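 also: 50 nL library stock added to about 25 µL; numbers are from one replicate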
# Mtb hypoxia rep – inhibitors of hypoxia-regulated fluorescent reporter in Mycobacterium tuberculosis | M. tuberculosis hypoxia-regulated fluorescent reporter, fluorescence | fluorescence inhibition, % (concentration not given with the values) | hit rate 0.1% among 300,000 | AID 1159583;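 active = 35 to 45% if threefold the growth effect, above 45% if 1.5-fold the growth effect; inactive = the rest, general growth blockers included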;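 also: wells of about 50 µL received 100 nL stock; 0% = vehicle wells and 100% = reference inhibitor wells; whole bacteria with a GFP reporter of the hypoxia response; strong numbers were not always called active; many hits fall short of the cut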
# Autofluor counter – counter-screen for toxin protease inhibitors: compound fluorescence. hit rate 3.1% among 360,000. AID 624483. compound autofluorescence counterscreen, microsphere flow cytometry; stronger effect = higher value. fluorescence intensity (concentration not given with the values);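 active = at least 3 SD above the mean of all compounds, about 16000 in these data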;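 also: 100 nL of 1 mM stock went into each well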
# ugtP null kill – growth inhibition of S. aureus ugtP deletion strain; S. aureus RN4220 ugtP deletion, OD600 growth, 16 h; some inactives read as strong as hits; growth inhibition, % (no concentration beside the values); hit rate 0.54% among 330,000;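 active = z-score under -3 and OD600 up to 0.15 on both plates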;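 also: plate controls were untreated wells for no effect and antibiotic for full effect; wells of about 80 µL received 100 nL stock; the first replicate is given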
# Mtb hypoxia rep growth – also measured in Mtb hypoxia rep; calls as there; growth inhibition, %; measured here: M. tuberculosis growth (absorbance);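 0% = vehicle and 100% = reference antibiotic; read after six days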
# Numbers without * were called inactive; . = no result given.
# The line under a structure holds: Mtb hypoxia rep growth	RN4220 kill	BJeLR viability	Mtb hypoxia rep	ugtP null kill	Autofluor counter	PrP 5UTR inh
> CN1CCC(=NNC(=O)c2ccc(N(Cc3ccccc3Cl)S(C)(=O)=O)cc2)CC1
 : .	.	1	.	.	2441	-22
> O=C(Cc1ccc([N+](=O)[O-])cc1)NCc1ccccn1
 : 4	0.6	-1	4	3	5134	-22
> COC(=O)Cn1c(=O)c2c(nc3n2CCCN3Cc2ccccc2)n(C)c1=O
 : -5	-0.1	11	5	8	4053	-15
> O=C(CCc1ccccc1)N1CCN(C(=O)CCc2ccccc2)CC1
 : 5	4.7	.	10	9	2867	-23
> CC1CC(C)CN(CC(O)COC2CC(C)CC(C)(C)C2)C1 (stereo not drawn)
 : 4	3.1	-1	6	10	5572	-39
> COc1ccc(-n2nc3c(c2NC(=O)CC(C)C)CS(=O)C3)cc1 (stereo not drawn)
 : -2	0.3	-12	8	2	5426	-11
> O=C(c1ccco1)N1CCN(Cc2nnnn2CC2CCCO2)CC1 (stereo not drawn)
 : -12	7.4	2	-2	0	2490	-16
> COc1cccc(CNC(=O)C2CCN(S(=O)(=O)c3cccc4nonc34)CC2)c1
 : 0	5.3	-8	8	9	4723	-4
> CCCNc1[nH]c(=O)n(C)c(=O)c1N=O
 : .	2.8	3	.	4	3527	-3
> CC(OC(=O)c1ccc2ccccc2n1)C(=O)c1ccccc1 (stereo not drawn)
 : 15	3.4	0	5	8	5624	-9
> Cn1c(=O)n(CC(=O)N2CCOCC2)c2ccccc21
 : 13	2.3	1	9	-8	3139	-22
> Cc1ccc(Nc2cc(C)nc(N3CCOCC3)n2)c(C)c1
 : 0	1.7	1	-3	7	2227	-1
> CCC1(C)Cc2ccccc2-c2nc(NCCO)[nH]c(=O)c21 (stereo not drawn)
 : -1	2.9	-10	3	-8	2495	-15
> CC(=O)NC(c1ccc(C(C)C)cc1)c1ccc2cccnc2c1O (stereo not drawn)
 : .	.	35	.	.	3518	33
> CCc1c(C)sc(NC(=O)c2cc(-c3ccco3)on2)c1C#N
 : 5	3.8	12	4	-8	23332*	2
> COc1ccccc1NC(=O)COC(=O)C=Cc1ccc2c(c1)OCO2
 : 12	1.1	.	2	-4	.	.
> COc1ccc(-c2c(-c3ccc(O)cc3O)n[nH]c2C)cc1OC
 : 7	5.8	7	2	0	10678	-22
> CCN(CC)S(=O)(=O)c1cccc(NC(=O)CCSc2ccc(Cl)cc2)c1
 : 8	4.7	-26	10	0	2494	7
> CCc1nc(SCC(=O)Nc2cc(C)on2)c2c(C)c(C)sc2n1
 : 1	-8.5	7	14	-4	2856	-25
> CCCCOP(=O)(c1ccc(N(C)C)cc1)C(O)c1ccc(C(C)C)cc1 (stereo not drawn)
 : -4	1.7	2	-15	-7	2874	-10

# One compound at a time, from the list above.
# CCCCOP(=O)(c1ccc(N(C)C)cc1)C(O)c1ccc(C(C)C)cc1 (stereo not drawn) as listed: Mtb hypoxia rep growth = -4; RN4220 kill = 1.7; BJeLR viability = 2; Mtb hypoxia rep = -15; ugtP null kill = -7; Autofluor counter = 2874; PrP 5UTR inh = -10
# COc1cccc(CNC(=O)C2CCN(S(=O)(=O)c3cccc4nonc34)CC2)c1 as listed: Mtb hypoxia rep growth = 0; RN4220 kill = 5.3; BJeLR viability = -8; Mtb hypoxia rep = 8; ugtP null kill = 9; Autofluor counter = 4723; PrP 5UTR inh = -4

# Continued:
# The line under a structure holds: Mtb hypoxia rep growth	RN4220 kill	BJeLR viability	Mtb hypoxia rep	ugtP null kill	Autofluor counter	PrP 5UTR inh
> Cc1ccccc1-n1nnnc1-c1ccccc1
 : 7	-2.9	2	-11	-13	23616*	-6
> Cc1ccc2c(c1)N(CC(=O)c1cccc(Cl)c1)C(=O)C(C)O2 (stereo not drawn)
 : 11	2.9	4	5	-3	23986*	-14
> C=CCSc1nnc(CCCCCN2C(=O)c3cccc4cccc(c34)C2=O)o1
 : -1	11	-13	-1	2	2032	-23
> CCOc1ccc(N/C=C/C(=O)c2ccc(OC)cc2)c([N+](=O)[O-])c1
 : 3	2.2	7	3	-2	10956	-30
> O=C(/C=C/c1ccc(OCCCF)cc1)N1CCOCC1
 : 11	9.3	-1	-1	6	3480	-9
> COc1ccccc1/C=N/NC(=O)CNC(=O)c1ccc(S(=O)(=O)N2CCCC2)cc1
 : .	.	-2	.	.	2437	-11
> CCCCCC(=O)NC(=S)Nc1ccc(N2CCCCC2)c(Cl)c1
 : .	-2.2	-6	.	35	9246	-7
> Cc1ccc(NCC(=O)N=Nc2c(O)n(C)c3ccccc23)cc1
 : 23	5.8	1	14	0	3317	-26
> Brc1ccc(-c2nnc3c4ccccc4nc(N4CCOCC4)n23)cc1
 : 0	3.1	7	2	-15	5395	-8
> COc1cccc(NC(=O)C2CCN(S(=O)(=O)c3ccc4c(c3)OCCO4)CC2)c1
 : 10	-0.3	0	-5	-4	22969*	9
> Cc1ccc(N(C(=O)c2ccc3c(c2)OCO3)C2C=CS(=O)(=O)C2)cc1 (stereo not drawn)
 : 6	5.8	-1	13	5	5642	-13
> CCOC(=O)Cc1csc(NC(=O)COc2ccc(OC)cc2)n1
 : 5	0.2	0	7	8	6126	-9
> COc1ccc(NC(=O)c2ccco2)cc1N
 : -7	0.9	1	3	4	3408	-14
> CCc1ccc(NC(=O)C/C(C)=N/NC(=O)OCc2ccc(OC)cc2)cc1
 : .	.	-2	.	.	7287	0
> CCN(CC)CCn1c(=S)[nH]c2cc(C(=O)NCc3ccc(C)cc3)ccc2c1=O
 : 1	-1.1	-8	11	-5	6116	4
> CC[C@@]1(C(=O)OC)N[C@H](CN(C)S(=O)(=O)c2ccc(-c3ccccc3)cc2)[C@@H]2C(=O)N(C)C(=O)[C@@H]21
 : -7	2.2	.	-12	3	4119	3
> COc1ccccc1-c1cc(C(F)(F)F)nc(S(=O)(=O)CCCC(=O)NCc2ccc(F)cc2)n1
 : -1	22	.	8	5	3128	-19
> Cc1ccc(NC(=O)c2sc3ncn(CC(=O)N4CCN(c5ccccn5)CC4)c(=O)c3c2C)cc1F
 : -4	-2.5	1	-6	-2	5168	-28
> CN(C(=O)CCc1nnc(-c2ccc(-c3ccccc3)cc2)o1)C1CCOCC1
 : 8	6.8	-2	8	13	5707	1
> C(#Cc1ccccc1)C[N+]1(CC#Cc2cccc3ccccc23)CCOCC1
 : 20	-6.5	.	-2	-9	4336	-37

# Remaining list, next part.
# The line under a structure holds: Mtb hypoxia rep growth	RN4220 kill	BJeLR viability	Mtb hypoxia rep	ugtP null kill	Autofluor counter	PrP 5UTR inh
> O=C(O)c1ccc2c(c1)OCCCO2
 : 0	3.4	-12	7	1	4252	-10
> COC(=O)C(NS(=O)(=O)c1ccccc1Cl)c1ccccc1 (stereo not drawn)
 : 5	4.5	-3	10	0	2545	-5
> CC(=O)Nc1ccc(NC(=O)C2CC(=O)N(c3ccc(Cl)cc3)C2)cc1 (stereo not drawn)
 : 8	5.1	1	9	0	6577	-4
> O=C(c1ccccc1)C1CN(Cc2ccccc2)CCC1(O)c1ccccc1 (stereo not drawn)
 : 9	-3.4	4	8	21	4288	-49
> COc1ccc2oc(C(=O)OCC(=O)N(C)CC(=O)Nc3ccc(F)cc3)c(C)c2c1
 : 8	0.2	8	-1	0	6026	7
> Cc1cccc(C)c1Oc1nc(-c2ccccc2)ncc1S(=O)(=O)c1ccccc1
 : .	2.8	-3	.	19	2821	7
> O=C(O)CN(c1ccccc1F)S(=O)(=O)c1ccccc1
 : 15	-3.8	0	1	-9	21296*	-20
> c1ccc2c(c1)[nH]c1c(N3CCSCC3)ncnc12
 : 10	4.4	.	6	-14	6517	-6
> Nc1nc(SCC(=O)Nc2cccnc2Cl)n[nH]1
 : 7	6.2	2	7	10	3969	-2
> Cc1cc(C(F)(F)F)nn2cnnc12
 : 6	5.1	8	12	5	4445	-15
> O=C(Nc1cccc(Cl)c1)C1CCCN(S(=O)(=O)c2cnc[nH]2)C1 (stereo not drawn)
 : .	5.9	-4	.	-11	5768	-21
> O=C(COc1ccccc1)Nc1nnc(COc2ccccc2)s1
 : 0	0.7	10	14	-5	5870	-10
> CCOc1ccc(NCCC(=O)c2ccc3c(c2)OCO3)cc1
 : 6	3.7	2	2	2	8798	-23
> Nc1ccc(S(=O)(=O)NC2(C(F)(F)F)NC(=O)N(c3ccccc3Cl)C2=O)cc1 (stereo not drawn)
 : -1	4.1	7	13	5	2222	-22
> O=C(c1cccc(S(=O)(=O)N2CCCC2)c1)N1CCCc2ccccc21
 : 6	0.6	4	-1	-3	4788	-13
> Cc1sc2ncnc(N/N=C/c3ccccc3O)c2c1C
 : .	.	81*	.	.	6911	41
> C[C@H](NC(=O)N1CCn2c1nc1ccccc12)C(=O)NCc1ccccc1
 : 6	6.5	1	7	3	5791	-9
> CSc1nnnn1CCn1nnnc1SC
 : -3	-1.8	-8	-10	-1	4467	-1
> Cc1cc(C)c(S(C)(=O)=O)c(S(=O)c2ccc(Cl)cc2)n1 (stereo not drawn)
 : 11	-9.8	-9	9	-4	.	-12
> O=C(O)C(O)(c1ccccc1)C1CCCC1 (stereo not drawn)
 : .	2.9	-5	.	0	4043	-6

# Remaining list, next part.
# The line under a structure holds: Mtb hypoxia rep growth	RN4220 kill	BJeLR viability	Mtb hypoxia rep	ugtP null kill	Autofluor counter	PrP 5UTR inh
> CC[C@@H]1C=C(C(=O)O)[C@H](c2ccc(C)cc2)N1S(=O)(=O)c1ccc(C)cc1
 : 2	5.9	.	-3	12	2909	-32
> COC(=O)C(C)Sc1nnc(Cc2cc(=O)[nH]c(=O)[nH]2)n1-c1ccc(Cl)cc1 (stereo not drawn)
 : .	0.8	1	.	6	5807	-11
> O=C(c1ccco1)N1CCN(C(=S)Nc2cc(F)cc(F)c2)CC1
 : 6	0.4	-14	1	6	5423	-16
> COc1cccc(-c2nc(CS(=O)CC(=O)NCCCOC(C)C)c(C)o2)c1 (stereo not drawn)
 : 4	2.9	-2	3	-2	21012*	-8
> Cc1ccccc1C(=O)NC=C1C(=O)OC(C)(C)OC1=O
 : 3	3.0	5	4	5	4167	-33
> COc1ccc(OC)c(S(=O)(=O)N2CCN(CC(O)COc3ccccc3)CC2)c1 (stereo not drawn)
 : 0	5.7	-7	5	5	3015	-4
> COc1ccc(CCNC(=O)CN2C(=O)NC(CCSC)C2=O)cc1 (stereo not drawn)
 : 5	3.4	7	2	-4	4344	-10
> CCCS(=O)(=O)N1CCCC(C(=O)NCCc2ccc(OC)c(OC)c2)C1 (stereo not drawn)
 : 0	4.9	13	6	1	2845	-16
> O=C(NC1(C(F)(F)F)NC(=O)N(C2CCCCC2)C1=O)c1ccco1 (stereo not drawn)
 : 13	0.6	0	6	3	3927	-15
> O=C(CCc1nc2sc3c(c2c(=O)[nH]1)CCCC3)Nc1ccccc1Cl
 : 11	2.6	-1	0	-10	3808	-22
> CC(Cc1ccccc1)[n+]1cc(/N=C(\N)[O-])on1 (stereo not drawn)
 : -3	3.0	0	3	4	2534	-11
> CC(C)=CCC/C(C)=C/CNC(=O)C[C@H]1C[C@H](C(=O)N(C(C)C)C(C)C)[C@@]2(C)c3[nH]c4cc(CCC(=O)N(C)C)ccc4c3CCN2C1=O
 : 4	-1.7	.	-10	-20	3879	22
> COc1ccc(C)cc1C(=O)C1CC(C(=O)O)C(C)(C)C1C (stereo not drawn)
 : 8	2.0	7	-5	0	.	-7
> CC(C)Oc1ccc(-c2nc(NCC3CCCO3)c3ccccc3n2)cc1 (stereo not drawn)
 : 13	-3.1	-15	7	-15	4064	-63
> CC(C)COC(=O)Nc1ccc(C(=O)O)cc1
 : 9	3.5	-2	3	2	11240	-11
> COc1ccccc1N1CCN(CCc2n[nH]c(=S)n2-c2ccccc2)CC1
 : 2	-0.4	15	1	2	10287	-10
> Cc1cc(-n2c(C)cc(C(=O)CN3C(=O)NC4(CCCCC4C)C3=O)c2C)no1 (stereo not drawn)
 : 4	2.8	2	-2	1	8539	-5
> COc1ccc(S(=O)(=O)N2CCC(n3cnc4cc(C(F)(F)F)ccc43)CC2)cc1
 : 4	5.4	0	-1	-5	6790	-21
> COc1ccc(C2C=CCN(S(=O)(=O)C=Cc3ccccc3)CC(=O)N2Cc2ccc(F)cc2)cc1 (stereo not drawn)
 : 4	1.7	.	-11	1	.	.
> Cc1cc(C)cc(-c2nnc(SCC(=O)NCc3cccs3)o2)c1
 : 8	0.0	-6	10	14	6392	-17
> Cn1c(CCNC(=O)c2cc(COc3ccc(F)c(F)c3)on2)nc2ccccc21
 : .	.	-12	.	.	5199	-23
> CCCCCCCNC1=CC(=O)CC(c2ccccc2)C1 (stereo not drawn)
 : -3	3.4	-5	-10	-6	2539	-3

# Screens from PubChem.
